Bioassay records as filed in PubChem BioAssay.
ARFGAP1 inhibitor = inhibitors of rat ARFGAP1 | Q62848 | Arfgap1-stimulated ARF1 GTP hydrolysis, GDP FP detection | inhibition, % at 16.5 µM | 360,000 compounds, 0.26% hits | AID 651572;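 active = inhibition above a per-plate limit, mean inhibition of low control wells plus 3 SD, cut at about 25% in these data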;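 note: 0% = DMSO wells with enzyme and 100% = wells lacking Arfgap1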
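Assay system: purified rat His6-Arfgap1 residues 1-136 (GAP domain); Reagent: human Δ17 ARF1 bound to GTP; Dosing: 16.5 µM single point, 1.26% DMSO; Times: GTP hydrolysis reaction 2 h at 25 °C; Signal: FP, GDP Alexa 633 tracer displaced from anti-GDP antibody, 620/688 nm; Measure: % inhibition from polarization.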
ADAM17 inh = inhibits human ADAM17; P78536; recombinant ADAM17, EDANS/DABCYL FRET peptide cleavage; inhibition, % at 6.95 µM; 370,000 compounds, 0.83% hits; AID 720648;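 active = inhibition above the mean of compounds lying between control limits plus 3 SD, set per campaign, cut at about 8.5% in these data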;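 note: 0% = DMSO-only wells as the low control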
Target sequence (P78536 215-824 limits assumed): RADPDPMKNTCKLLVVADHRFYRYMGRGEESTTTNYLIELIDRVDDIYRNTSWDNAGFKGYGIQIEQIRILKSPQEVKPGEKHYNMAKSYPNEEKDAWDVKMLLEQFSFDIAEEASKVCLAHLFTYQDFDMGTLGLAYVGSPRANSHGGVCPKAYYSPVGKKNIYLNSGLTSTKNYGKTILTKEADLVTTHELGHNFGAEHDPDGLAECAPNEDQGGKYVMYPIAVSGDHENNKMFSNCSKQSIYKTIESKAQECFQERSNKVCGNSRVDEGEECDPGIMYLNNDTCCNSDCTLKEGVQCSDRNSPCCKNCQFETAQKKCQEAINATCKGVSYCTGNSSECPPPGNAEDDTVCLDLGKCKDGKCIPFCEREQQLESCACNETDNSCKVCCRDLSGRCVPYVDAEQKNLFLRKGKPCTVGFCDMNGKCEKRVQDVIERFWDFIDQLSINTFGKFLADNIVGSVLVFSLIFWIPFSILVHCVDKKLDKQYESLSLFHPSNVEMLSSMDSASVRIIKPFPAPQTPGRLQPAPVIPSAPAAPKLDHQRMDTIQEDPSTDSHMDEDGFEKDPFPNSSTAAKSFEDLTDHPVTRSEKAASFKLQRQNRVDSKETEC
ASAP1 GAP inh = inhibitors of human ASAP1 ArfGAP activity; Q9ULH1; ASAP1-stimulated ARF1 GTP hydrolysis, GDP FP detection; inhibition, % at 16.5 µM; 360,000 compounds, 0.19% hits; AID 624377; in the data active = inhibition above about 25%;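 note: 0% = vehicle with enzyme and substrate and 100% = no enzyme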
PLC-gamma1 inh = PLC-gamma1 (human) inhibition, primary screen | P19174 | purified PLC-gamma1, fluorogenic substrate, fluorescence | inhibition, % at 12.2 µM | 370,000 compounds, 0.84% hits | AID 720700; in the data active = inhibition above about 9.5%
ADAM10 inh = inhibits human ADAM10; O14672; 370,000 compounds, 0.62% hits; inhibition, % at 7 µM; recombinant ADAM10, EDANS/DABCYL FRET peptide cleavage, 3 h;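 active = inhibition above a per-campaign cutoff equal to the mean of compounds falling between control-based bounds plus 3 SD, cut at about 20% in these data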;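 note: 0% = DMSO wells while the 100% control is not disclosed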
An asterisk follows results filed as active; i = inactive; & = joins results of further samples; ! = not confirmed by another sample. These rows are one share of the data (hit frequency here may not be typical).

SMILES	ARFGAP1 inhibitor	ADAM17 inh	ASAP1 GAP inh	PLC-gamma1 inh	ADAM10 inh
CC(C)(C)CC(C)(C)c1ccc(OCCOCC[N+](C)(C)Cc2ccccc2)cc1	6	0	0	2	2
CC(C)(C(=O)O)c1ccc(C(O)CCCN2CCC(C(O)(c3ccccc3)c3ccccc3)CC2)cc1 (stereo not drawn)	10	2	5	2	5
CCc1nc(N)nc(N)c1-c1ccc(NCCN)c([N+](=O)[O-])c1	-8	2	12	3	2
COc1cc2c(oc(=O)c3cc(C)cc(OC)c32)c2c(C3OC(C)C(O)C(C)(O)C3O)ccc(O)c12 (stereo not drawn)	1	-10	9	-76	-44
COc1c(N2C[C@@H]3CCCN[C@@H]3C2)c(F)cc2c(=O)c(C(=O)O)cn(C3CC3)c12	-1	i	6	i	i
CC(C)[N+]1(C)[C@@H]2CC[C@@H]1CC(OC(=O)C(CO)c1ccccc1)C2 (stereo partly drawn)	8	-3	1	1	8
O=C(O)COCCN1CCN([C@H](c2ccccc2)c2ccc(Cl)cc2)CC1	0	-5	10	-1	-1
O=c1c(O)c(-c2cc(O)c(O)c(O)c2)oc2cc(O)cc(O)c12	11	1	8	-14	4
O=C(c1ccc(NS(=O)(=O)c2ccccc2)cc1)N1CCN(c2ccccc2)CC1	-3	-2	-11	0	0
O=C(O)c1cc(NS(=O)(=O)c2cccc3ccccc23)ccc1O	-10	-2	11	-2	0
C[C@H](C(=O)O)c1cccc(C(=O)c2ccccc2)c1	21	-4	13	-3	0
CN1C2CC(OC(=O)C(CO)c3ccccc3)CC1C1OC12 (stereo not drawn)	8&7&6	2&-10&-5	-2&6&7	10*!	-3&-13&6
CN1C2CCC1CC(OC(=O)C(CO)c1ccccc1)C2 (stereo not drawn)	-2	1	2	7	7
COc1ccc(C2CC(c3ccccc3)=NN2C(=O)CCCC(=O)O)cc1 (stereo not drawn)	-4	4	13	-5	2

Part of the list above in order of number of heavy atoms, highest first.
SMILES	ARFGAP1 inhibitor	ADAM17 inh	ASAP1 GAP inh	PLC-gamma1 inh	ADAM10 inh
CC(C)(C(=O)O)c1ccc(C(O)CCCN2CCC(C(O)(c3ccccc3)c3ccccc3)CC2)cc1 (stereo not drawn)	10	2	5	2	5
COc1cc2c(oc(=O)c3cc(C)cc(OC)c32)c2c(C3OC(C)C(O)C(C)(O)C3O)ccc(O)c12 (stereo not drawn)	1	-10	9	-76	-44
O=C(c1ccc(NS(=O)(=O)c2ccccc2)cc1)N1CCN(c2ccccc2)CC1	-3	-2	-11	0	0
COc1c(N2C[C@@H]3CCCN[C@@H]3C2)c(F)cc2c(=O)c(C(=O)O)cn(C3CC3)c12	-1	i	6	i	i
COc1ccc(C2CC(c3ccccc3)=NN2C(=O)CCCC(=O)O)cc1 (stereo not drawn)	-4	4	13	-5	2
O=c1c(O)c(-c2cc(O)c(O)c(O)c2)oc2cc(O)cc(O)c12	11	1	8	-14	4
CN1C2CC(OC(=O)C(CO)c3ccccc3)CC1C1OC12 (stereo not drawn)	8&7&6	2&-10&-5	-2&6&7	10*!	-3&-13&6
CN1C2CCC1CC(OC(=O)C(CO)c1ccccc1)C2 (stereo not drawn)	-2	1	2	7	7
C[C@H](C(=O)O)c1cccc(C(=O)c2ccccc2)c1	21	-4	13	-3	0
